Screens from PubChem.
DUX4 inh – inhibitors of DUX4-driven ZSCAN4 reporter expression, primary screen, 293T cells, Gaussia and Italica luciferase. 293T-iDUX4 ZSCAN4-Gaussia luciferase reporter, 24 h; stronger effect = lower value. activity change, negative = inhibition, % (no concentration beside the values). hit rate 0.8% among 37,000;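 active = -10% or lower and over 25 points stronger than a control reporter; inconclusive = -10% or lower with a smaller gap; inactive = above -10%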;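 also: 0% = median of neutral control wells and -100% = median of positive control wells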
DUX4 inh difference – second read-out of DUX4 inh, no call of its own (marks repeat the call); Gaussia minus Italica difference, %; measured here: selective DUX4 reporter inhibition;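 worked out from the two reporters; negative = selective loss of the DUX4 reporter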
DUX4 inh control – also measured in DUX4 inh; calls as there; activity change, negative = inhibition, %; measured here: Italica tet-on control reporter;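 0 = neutral control and -100 = positive control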
Starred values were filed as active, the others as inactive; u = inconclusive; x = no result given. Not all compounds are listed; count on the stated rates, not on these rows.

SMILES	DUX4 inh	DUX4 inh difference	DUX4 inh control
COC(=O)C[C@@H]1CC[C@H]2[C@@H](COc3ccc(NC(=O)Nc4cc(C)cc(C)c4)cc3C(=O)N2C)O1	-2	-3	0.6
C[C@@H]1CN([C@@H](C)CO)C(=O)c2cc(C#CC(C)(C)O)cnc2O[C@H]1CN(C)Cc1ccccn1	5	2	2.8
CN1C(=O)c2cc(NC(=O)c3cccc(C(F)(F)F)c3)ccc2OC[C@H]2O[C@H](CC(=O)O)CC[C@H]21	-3	-6	2.5
CC(C)NC(=O)Nc1ccc2c(c1)C(=O)N(C)[C@H]1CC[C@H](CC(=O)NCC(F)(F)F)O[C@@H]1CO2	6	6	0.5
CN(C)C(=O)c1cccc(-c2ccc3c(c2)[C@H]2[C@H](CCN2S(=O)(=O)c2cn(C)cn2)[C@H](CO)N3)c1	26	17	8.7
O=C(c1cccc(F)c1)N1CCCCN2[C@H](C1)[C@@H](c1ccc(-c3ccccc3)cc1)[C@@H]2CO	u	x	x
COc1ccc2c3c([nH]c2c1)[C@H](CO)N(C(=O)c1ccc(F)cc1)CC31CN(C(=O)NC(C)C)C1	15	0	15
C[C@@H]1CN([C@H](C)CO)C(=O)c2cccc(NC(=O)Nc3ccc(C(F)(F)F)cc3)c2O[C@H]1CN(C)C(=O)Nc1cccc2ccccc12	-3	-4	0.2
O=C(C[C@@H]1CC[C@H](NC(=O)c2ccccn2)[C@@H](CO)O1)NCc1cc(F)cc(F)c1	3	6	-2.7
CN(C)C(=O)C[C@H]1C[C@H]2c3cc(NC(=O)Nc4ccccc4F)ccc3O[C@H]2[C@@H](CO)O1	1	2	-1.9
Cc1ccccc1CN(C)C[C@H]1OCc2cnnn2CCCC(=O)N([C@@H](C)CO)C[C@H]1C	-6	-10	4.3
COc1ccccc1S(=O)(=O)N(C)C[C@@H]1OCc2ccccc2-c2ccccc2C(=O)N([C@@H](C)CO)C[C@@H]1C	-5	-4	-1.0
O=C(Cc1ccccc1)N1CC(=O)N2[C@H](CO)[C@@H](c3ccc(C#CCc4ccccc4)cc3)[C@H]2C1	-5	-8	3.3
COc1cccc(CN(C)C[C@@H]2OCc3cn(nn3)CCCC(=O)N([C@H](C)CO)C[C@@H]2C)c1	7	1	6.0
COc1ccc(S(=O)(=O)N(C)C[C@H]2Oc3ccc(NC(=O)CCCCCC(=O)Nc4ccccc4N)cc3C(=O)N([C@@H](C)CO)C[C@H]2C)cc1	2	0	1.8

The last seven records of the section before are carried over, then new ones follow:
SMILES	DUX4 inh	DUX4 inh difference	DUX4 inh control
O=C(C[C@@H]1CC[C@H](NC(=O)c2ccccn2)[C@@H](CO)O1)NCc1cc(F)cc(F)c1	3	6	-2.7
CN(C)C(=O)C[C@H]1C[C@H]2c3cc(NC(=O)Nc4ccccc4F)ccc3O[C@H]2[C@@H](CO)O1	1	2	-1.9
Cc1ccccc1CN(C)C[C@H]1OCc2cnnn2CCCC(=O)N([C@@H](C)CO)C[C@H]1C	-6	-10	4.3
COc1ccccc1S(=O)(=O)N(C)C[C@@H]1OCc2ccccc2-c2ccccc2C(=O)N([C@@H](C)CO)C[C@@H]1C	-5	-4	-1.0
O=C(Cc1ccccc1)N1CC(=O)N2[C@H](CO)[C@@H](c3ccc(C#CCc4ccccc4)cc3)[C@H]2C1	-5	-8	3.3
COc1cccc(CN(C)C[C@@H]2OCc3cn(nn3)CCCC(=O)N([C@H](C)CO)C[C@@H]2C)c1	7	1	6.0
COc1ccc(S(=O)(=O)N(C)C[C@H]2Oc3ccc(NC(=O)CCCCCC(=O)Nc4ccccc4N)cc3C(=O)N([C@@H](C)CO)C[C@H]2C)cc1	2	0	1.8
C[C@@H]1CCCCO[C@H](CN(C)C(=O)Cc2ccccc2)[C@@H](C)CN([C@H](C)CO)C(=O)c2cc(NC(=O)c3ccncc3)ccc2O1	-3	-6	3.5
C[C@@H](NC(=O)[C@@H]1[C@@H](CO)[C@@H]2Cn3c(cccc3=O)[C@@H]2N1S(C)(=O)=O)c1ccccc1	-1	-1	0.0
CO[C@H]1CN(C)C(=O)c2cc(NC(=O)c3cnccn3)ccc2OC[C@@H](C)N(CCc2ccccc2)C[C@H]1C	-3	3	-5.8
COC(=O)C[C@H]1CC[C@H]2[C@H](COc3ccc(NC(=O)Nc4cccc(F)c4)cc3C(=O)N2C)O1	0	-1	0.6
CCc1csc(N2[C@H](CO)[C@H](c3ccc(-c4cccc(F)c4)cc3)[C@@H]2C#N)n1	2	1	1.4
CCC(=O)N1C[C@H](O)COC[C@H]2O[C@H](CC(=O)NCc3ccccc3Cl)CC[C@@H]21	0	-1	1.2
CO[C@H]1CN(C)C(=O)c2ccc(NC(C)=O)cc2OC[C@H](C)N(C(=O)C2CCOCC2)C[C@@H]1C	1	-3	3.2
CN1C(=O)c2cc(NC(=O)Nc3cccc(Cl)c3)ccc2OC[C@@H]2O[C@@H](CC(=O)NCCc3ccncc3)CC[C@H]21	1	2	-0.8
O=C(Nc1ccc2c(c1)[C@@H]1C[C@H](CC(=O)N3CCc4ccccc4C3)O[C@H](CO)[C@@H]1O2)c1ccc2c(c1)OCO2	u	x	x
O=C(CC1CC1)N1CC2(C1)[C@@H](c1ccccc1)[C@@H](CO)N2Cc1ccccn1	-4	-8	4.2
CN(C)CC#Cc1ccc([C@@H]2[C@H](CO)N3CCCCN(C(=O)NC4CCCC4)C[C@@H]23)cc1	15	8	7.1
O=C(C[C@@H]1C[C@@H]2c3cc(NC(=O)C4CCC4)ccc3O[C@@H]2[C@H](CO)O1)NC1CCCC1	1	-5	6.7
CNC[C@H]1Oc2ccc(N(C)C)cc2C(=O)N([C@H](C)CO)C[C@@H]1C	2	2	0.4
Cc1nc(N2[C@@H](C#N)[C@@H](c3ccccc3)[C@@H]2CO)sc1C	-2	-2	0.4
Cc1ccccc1S(=O)(=O)N1CC[C@@H]2[C@@H](CO)Nc3ccc(-c4ccccc4)cc3[C@@H]21	u	x	x
CO[C@H]1CN(C)C(=O)c2ccc(NC(=O)c3cc(C)on3)cc2OC[C@@H](C)N(CC2CC2)C[C@H]1C	4	0	4.1
O=C(Nc1cc(F)ccc1F)N1CC(=O)N2[C@H](CO)[C@@H](c3ccc(-c4ccc(F)cc4)cc3)[C@@H]2C1	-6	-9	2.9
COc1ccccc1NC(=O)N1CC(=O)N2[C@@H](CO)[C@H](c3ccc(C#CCC(C)C)cc3)[C@@H]2C1	u	x	x
CNC[C@H]1OCCCC[C@@H](C)Oc2ccc(NC(=O)CCC(F)(F)F)cc2C(=O)N([C@H](C)CO)C[C@@H]1C	-1	7	-7.3
COc1ccccc1CNC(=O)C[C@@H]1CC[C@H]2[C@@H](COC[C@@H](O)CN2Cc2cccc(-c3ccncc3)c2)O1	-6	0	-5.9
CCC(=O)N1[C@@H]2Cn3c(ccc(-c4cncnc4)c3=O)[C@H]1[C@@H](C(=O)N1CCc3ccccc3C1)[C@@H]2CO	12	1	11
COc1ccc(-c2ccc([C@H]3[C@H](C#N)N(C(=O)c4cccnc4)[C@H]3CO)cc2)cc1	-7	-1	-6.0
CCS(=O)(=O)Nc1ccc2c(c1)C(=O)N(C)[C@H]1CC[C@H](CC(=O)N[C@H]3CCN(Cc4ccccc4)C3)O[C@@H]1CO2	1	-1	1.6
O=C(O)C[C@H]1CC[C@@H]2[C@H](COC[C@@H](O)CN2S(=O)(=O)c2ccc(F)cc2)O1	13	8	4.2
CO[C@@H]1CN(C)C(=O)c2ccc(NC(C)=O)cc2OC[C@H](C)N(Cc2cccnc2)C[C@@H]1C	-3	-3	-0.3
CO[C@@H]1CC[C@H]2CCOc3c(C#N)cccc3C(=O)N(C)C[C@H](c3ccccc3)CC(=O)N(C)C[C@@H]1O2	6	1	5.3
O=C1N[C@H](Cc2ccccc2)COCc2cnnn2CC[C@H]1Cc1ccc(-c2ccccc2)cc1	0	-1	1.3
CC(C)CC#Cc1cnc2c(c1)C(=O)N([C@@H](C)CO)C[C@@H](C)[C@@H](CN(C)Cc1cccc(F)c1)O2	-2	-4	2.8
C[C@@H]1CN([C@H](C)CO)C(=O)c2cc(NC(=O)C3CCCCC3)ccc2O[C@H]1CN(C)C(=O)Nc1ccc(C(F)(F)F)cc1	-2	-1	-1.2
COc1cccc(-c2ccccc2[C@H]2[C@@H](C#N)N(C(=O)Cc3ccccc3)[C@H]2CO)c1	-9	5	-13
CCC(=O)N1[C@@H]2CN(C(=O)c3ccc4c(c3)OCO4)c3ccccc3[C@@H]2[C@@H]1CO	-1	1	-2.3
CO[C@H]1CN(C)C(=O)c2cc(NC(=O)C3CC3)ccc2OC[C@H](C)N(Cc2cc(F)ccc2F)C[C@@H]1C	u	x	x
CCCC(=O)Nc1ccc2c(c1)C(=O)N(C)[C@H]1CC[C@H](CC(=O)NCc3cccc(F)c3)O[C@H]1CO2	-2	-4	1.7
O=C(Cc1ccccc1)N1CC[C@@H]2[C@H]1c1cc(C#Cc3ccccc3)ccc1N[C@@H]2CO	u	x	x
COCC(=O)N1CC2(C1)[C@@H](c1ccccc1)[C@@H](CO)N2Cc1ccccc1OC	3	2	1.3
C/C=C/c1ccc2c(c1)O[C@H](CN(C)C(=O)Cc1cccnc1)[C@@H](C)CN([C@@H](C)CO)S2(=O)=O	1	1	-0.1
C[C@@H]1CN([C@@H](C)CO)C(=O)CCCn2cc(nn2)CO[C@H]1CN(C)Cc1ccc2c(c1)OCCN2C	2	4	-1.8
C[C@@H]1CN([C@H](C)CO)C(=O)CCCn2nncc2CO[C@@H]1CN(C)Cc1ccc2c(c1)OCO2	1	-3	4.5
CC=Cc1ccc2n(c1=O)C[C@@H]1[C@@H](CO)[C@H](C(=O)NCCC)[C@H]2N1C(=O)c1ccncc1 (mixture of isomers)	-3	-6	2.1
C[C@H](NC(=O)N(C)C[C@@H]1OCc2ccccc2-c2ccccc2C(=O)N([C@@H](C)CO)C[C@@H]1C)c1ccccc1	-1	-3	1.7
COCC(=O)N1[C@@H](C#N)[C@H](c2ccc(C#Cc3ccccc3F)cc2)[C@@H]1CO	-1	0	-1.2
O=C(c1ccccc1F)N1CC(=O)N2[C@@H](CO)[C@@H](c3ccc(C#Cc4ccccc4)cc3)[C@@H]2C1	u	x	x
CCCNC(=O)NC[C@H]1[C@H](c2ccc(C3=CCCCC3)cc2)[C@H](CO)N1C(C)=O	-2	-5	2.3
O=C(C[C@@H]1CC[C@H]2NC[C@H](O)COC[C@@H]2O1)NC1Cc2ccccc2C1	3	-4	7.0
C[C@@H]1CN([C@@H](C)CO)C(=O)Cc2cc(NC(=O)Cc3cn(C)c4ccccc34)ccc2O[C@H]1CN(C)Cc1ccc(C(F)(F)F)cc1	0	-8	7.6
COc1ccc(C#Cc2ccc([C@@H]3[C@H]4CN(S(=O)(=O)c5ccccc5)CCCCN4[C@H]3CO)cc2)cc1	-2	-7	4.9

Looked up one by one from the list above, 2 records:
SMILES	DUX4 inh	DUX4 inh difference	DUX4 inh control
COCC(=O)N1CC2(C1)[C@@H](c1ccccc1)[C@@H](CO)N2Cc1ccccc1OC	3	2	1.3
CN(C)C(=O)C[C@H]1C[C@H]2c3cc(NC(=O)Nc4ccccc4F)ccc3O[C@H]2[C@@H](CO)O1	1	2	-1.9
